Assay outcomes (PubChem)
NPYLR7 ag: mosquito NPYLR7 agonism | HEK293T NPYLR7/Galpha15, GCaMP6s calcium fluorescence | activation, % at 10 µM | hit rate 0.15% among 270,000 | AID 1259423; in the data active means activation above about 40%;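 further: 0% = vehicle and 100% = reference agonist at the receptor; some compounds past the cut are filed as inactive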
NPYLR7 ag max-min: recorded beside NPYLR7 ag, whose call it bears; activation, %; measured here: Max-Min RFU normalised activation; some inactives read as strong as hits;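 span of the calcium signal over five minutes; 0% = vehicle and 100% = native peptide agonist; compound fluorescence can raise it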
An asterisk follows results filed as active; & = joins results of further samples.

No.	molecule	NPYLR7 ag	NPYLR7 ag max-min
1	COc1cccc(-c2csc(=Nc3ccccc3)n2N2CCOCC2)c1	-6	-11
2	COc1ccc(C(=O)Nc2ccc3oc(-c4ccc(C)cc4)nc3c2)cc1[N+](=O)[O-]	-1	-10
3	Cc1cc(CNC(=O)c2cccc(C3CCNC3)c2)ccc1F (configuration not stated)	21	5
4	CCC(c1n[nH]c(Cc2ccccc2)n1)N1Cc2ccccc2C1=O (configuration not stated)	9	7
5	Cc1c(CN[C@H]2CCN(Cc3ccccc3)C2)c2ccccc2n1CC(N)=O	14	12
6	COc1ccc(-c2cccc(-c3ccc(NC(=O)c4cc(C)n(C(C)(C)C)n4)cc3)n2)cc1	4	3
7	OCCC1CN(Cc2cccn2-c2ccccn2)CCN1C1CCCC1 (configuration not stated)	-2	-4
8	CC(C)=CC(=O)NCCC1CCCN(CCC(F)(F)F)C1 (configuration not stated)	0	-1
9	Cc1cc(C)c(C)c(S(=O)(=O)N2CCN(CN3C(=O)CCSC3=O)CC2)c1C	3	2
10	CCC(C1C(=O)CC(C)(C)CC1=O)C1C(=O)CC(C)(C)CC1=O	3	1
11	C/C(Cl)=C\COc1cc(C)nc2ccc(Br)cc12	-1	-5
12	COc1cccc(S(=O)(=O)N2CCC3(CC2)NCCNC3=O)c1	12	11
13	CC1(C(=O)NCC2CCCCC2)CCN1Cc1ccc(-c2ccccn2)cc1 (configuration not stated)	5	0
14	COc1ccc(COC(=O)c2ccon2)cn1	1	77
15	CCOCCCNc1nc(Nc2ccc(C)c(C)c2)c2cnn(-c3ccccc3)c2n1	2	1
16	CC1(C)C2CCC1(C)C(NC(=O)c1ccc(-c3ccncc3)[nH]c1=O)C2 (configuration not stated)	2	1
17	NCC1CN(Cc2cnc(NCc3ccccc3)nc2)CCO1 (configuration not stated)	4	-1
18	Cc1ccc2c(Nc3ccc(F)c(C#N)c3)c(C(=O)N3CCOCC3)cnc2n1	-11	-12
19	COCC(=O)N1C[C@H]2CNC[C@@]2(C(=O)NCCc2ncccc2C)C1	-1	-6
20	O=C(Cc1csc(NC(=O)c2ccco2)n1)Nc1ccc(Cl)cc1	4	-2
21	Cc1ccc(F)cc1C(=O)N1CCCC1(C)C(=O)NCC(C)C (configuration not stated)	5	1
22	CC(=O)Nc1cnc(/C=C\CCCO)cn1	-2	-3
23	COC(=O)c1ccc(NC(=O)c2cc(=O)c(OCc3ccccc3)cn2C)cc1	-1	-3
24	C=CCn1cc(CN2CCN(c3cccc(OC)c3)C(=O)C2C)c(C)n1 (configuration not stated)	-8	-15
25	CCCCCc1ccc(C(=O)Nc2ccc(N3CCc4ccccc4C3)c(C(=O)NC3CC3)c2)cc1	22	32
26	CN(Cc1ccc(Cl)s1)CC(O)COCc1cccs1 (configuration not stated)	1	-2
27	Cc1nc(NCCCCc2ccccc2)c2cnn(C)c2n1	18	5
28	CCCCc1cn(CC2CCN(C(=O)c3cccs3)CC2)nn1	0	0
29	Cn1c(=O)c2c(nc(SCC#N)n2C)n(C)c1=O	6	3
30	CC1(C(=O)NS(=O)(=O)c2cccc(F)c2)CCN1C(=O)CC1CC1 (configuration not stated)	1	-3
31	COc1ccc(OC)c(-n2cnnc2Cc2nc(C)cs2)c1	3	0
32	CCOC(=O)CCCC(=O)N1CCc2ccccc2C1c1ccccc1Cl (configuration not stated)	15	8
33	Cc1nc(Cl)nc(Cl)c1Br	-8	-10
34	O=C(NCc1ccc2c(c1)OCO2)c1csc(CSc2nnc(-c3ccco3)n2-c2ccc(Cl)cc2Cl)n1	2	11
35	CCCCCC(=O)Nc1c(-c2ccc(OC)cc2)nc2cc(C)ccn12	-12	-7
36	CCOC(=O)C1CCN(C(c2ccc(F)cc2)C2Sc3nc(C)nn3C2=O)CC1 (configuration not stated)	2	-1
37	Cc1ccc2nc(C)c(C(=O)N3CCN(S(=O)(=O)c4ccccc4)CC3)cc2c1	-7	-7
38	O=C1CCCC(=O)N1CCS(=O)(=O)N1CCC(c2nnc(-c3ccco3)s2)CC1	-5	-1
39	Cc1ccc2occ(/C=C/c3ccc(S(=O)(=O)N4CCCCC4)s3)c(=O)c2c1	1	9
40	CC(NC(=O)c1ccccc1)C(=O)NN=Cc1ccco1 (configuration not stated)	-12	-11
41	CC1OC(C)(C)OC1C1CNc2nc(N)[nH]c(=O)c2N1C(=O)c1cccnc1 (configuration not stated)	21	13
42	CCC12CC3CC(O)(C1)CC(c1nc(CN(C)C)no1)(C3)C2 (configuration not stated)	2	2
43	CC(C)(C)c1cc(NC(=O)c2ccc(F)cc2Cl)n(-c2cc(Cl)ccc2Cl)n1	20	13
44	CCN(CC)C(=O)C1CSCN1C(=O)c1ccc(S(=O)(=O)NC(C)(C)C)o1 (configuration not stated)	-1	-1
45	COc1cc2c(cc1NC(C)=O)C(c1cc(C(C)C)ccc1OC)CC(=O)N2 (configuration not stated)	20	9
46	Brc1ccc(C=NNC2=NCCCCC2)cc1	3	1
47	OCC(O)C(O)C(O)c1cnc2ccccc2n1 (configuration not stated)	1	3
48	C[N+]([O-])=Cc1ccc(-c2ccccc2)cc1	-1	-2
49	COc1ccc(CN2COc3ccc4c(c3C2)O/C(=C\c2ccncc2)C4=O)cc1	23	19
50	Cc1cc(C(F)(F)F)nc(CCNCc2nnc(-c3ccc(C)n3C)o2)n1	13	8

Other entries follow.
No.	molecule	NPYLR7 ag	NPYLR7 ag max-min
51	O=C(NC1CCCN(CCCc2ccccc2)C1)c1ccc(Cl)s1 (configuration not stated)	10	-1
52	Cc1ccc(CN2C(=O)C(C)Sc3ccc(S(C)(=O)=O)cc32)cc1 (configuration not stated)	6	5
53	COc1ccccc1/C=C/CN1CCC2(CC1)c1ccccc1[C@@H](NC(=O)COc1ccccc1)[C@@H]2O	18	3
54	Cc1c(C(=O)NCc2ccc(F)cc2)sc(=O)n1Cc1ccccc1	14	5
55	Cc1onc(-c2ccccc2Cl)c1C(=O)Nc1ccc(C(=O)OC(C)C)cc1	-12	-13
56	O=c1cc(CSc2nc3ccccc3[nH]2)nc2sccn12	2	2
57	O=C1C(=O)N(C2CCCC2)C(=O)N1CN1CCN(Cc2ccc3c(c2)OCO3)CC1	5	6
58	N#Cc1cccc(/C=C2/COc3ccc(Br)cc3C2=O)c1	9	8
59	CCCc1cc(NCc2ccccn2)n2nc3nc(C)cc(C)c3c2n1	5	7
60	Cc1cc(C(C#N)C(=O)C2CC(=O)N(CC3CC3)C2)nc(C)n1 (configuration not stated)	6	5
61	CCOc1ccccc1CN(Cc1ccc2nonc2c1)C1CC1	4	1
62	CC1CCCCN1C1CN(Cc2ccccc2C(=O)O)C1 (configuration not stated)	1	0
63	CSc1ccccc1NC(=O)C(C)N1CCN(c2ccccc2F)CC1 (configuration not stated)	-18	-16
64	O=c1[nH]cnc2[nH]ncc12	-2&-8&-3&7	-8&-14&-10&-7
65	COc1cccc2c1C(=O)OC2C[N+](=O)[O-] (configuration not stated)	-4	8
66	CN(Cc1cn[nH]c1-c1ccc(F)cc1)C(=O)c1cn2c(n1)CNCC2	1	-5
67	Cn1ncc2c1CCCC2NC(=O)N1CCN(Cc2ccncc2)CC1 (configuration not stated)	5	4
68	Cc1ccc(C)c(-c2nn(-c3cc(N4CCCC4)ccc3[N+](=O)[O-])c(=O)c3ccccc23)c1	-3	-8
69	COC1(c2ccccc2)CCN(S(=O)(=O)NCc2ccccc2)CC1	4	3
70	Cc1cc(C)n(CN2CCN(C(=O)c3cccs3)CC2)c(=S)c1C#N	6	6
71	Cc1nc(N2CCCCCCC2)ncc1C(C)NC(=O)CCn1cccn1 (configuration not stated)	16	2
72	COc1ccc(N2CC(NC(=O)N3CCOCC3)CC2=O)cc1OC (configuration not stated)	-4	3
73	CCC(CC(C)CO)Nc1cccc(F)c1C#N (configuration not stated)	-4	-7
74	CCOC(=O)c1sc(NC(=O)Cc2cccc3ccccc23)nc1C	3	-4
75	O=C(Cc1ccccc1Cl)Nc1ccccc1OC(F)F	-2	-3
76	CC(=O)c1c(C)[nH]c(C(=O)Cn2cc(C(F)(F)F)ccc2=O)c1C	4	11
77	CCN1C(=O)C2(CC(=O)N(Cc3ccc(OC)c(OC)c3)C2=O)c2cc(Cl)ccc21 (configuration not stated)	5	-7
78	CC1=C(C(=O)OCC(C)C)C(c2cccc([N+](=O)[O-])c2)NC(=O)N1C (configuration not stated)	-6	-11
79	O=C(NCc1cccc(C(F)(F)F)c1)c1cc2n(n1)CCN(Cc1c(F)cccc1Cl)C2=O	12	0
80	COCCCn1ccnc1-c1ccc(C)c2ncccc12	8	3

Part of the list above, with two lines to a compound:
Below each compound: NPYLR7 ag	NPYLR7 ag max-min
60. Cc1cc(C(C#N)C(=O)C2CC(=O)N(CC3CC3)C2)nc(C)n1 (configuration not stated)
  6	5
61. CCOc1ccccc1CN(Cc1ccc2nonc2c1)C1CC1
  4	1
62. CC1CCCCN1C1CN(Cc2ccccc2C(=O)O)C1 (configuration not stated)
  1	0
63. CSc1ccccc1NC(=O)C(C)N1CCN(c2ccccc2F)CC1 (configuration not stated)
  -18	-16
64. O=c1[nH]cnc2[nH]ncc12
  -2&-8&-3&7	-8&-14&-10&-7
65. COc1cccc2c1C(=O)OC2C[N+](=O)[O-] (configuration not stated)
  -4	8
66. CN(Cc1cn[nH]c1-c1ccc(F)cc1)C(=O)c1cn2c(n1)CNCC2
  1	-5
67. Cn1ncc2c1CCCC2NC(=O)N1CCN(Cc2ccncc2)CC1 (configuration not stated)
  5	4
68. Cc1ccc(C)c(-c2nn(-c3cc(N4CCCC4)ccc3[N+](=O)[O-])c(=O)c3ccccc23)c1
  -3	-8
69. COC1(c2ccccc2)CCN(S(=O)(=O)NCc2ccccc2)CC1
  4	3
70. Cc1cc(C)n(CN2CCN(C(=O)c3cccs3)CC2)c(=S)c1C#N
  6	6
71. Cc1nc(N2CCCCCCC2)ncc1C(C)NC(=O)CCn1cccn1 (configuration not stated)
  16	2
72. COc1ccc(N2CC(NC(=O)N3CCOCC3)CC2=O)cc1OC (configuration not stated)
  -4	3
73. CCC(CC(C)CO)Nc1cccc(F)c1C#N (configuration not stated)
  -4	-7
74. CCOC(=O)c1sc(NC(=O)Cc2cccc3ccccc23)nc1C
  3	-4
75. O=C(Cc1ccccc1Cl)Nc1ccccc1OC(F)F
  -2	-3
76. CC(=O)c1c(C)[nH]c(C(=O)Cn2cc(C(F)(F)F)ccc2=O)c1C
  4	11
77. CCN1C(=O)C2(CC(=O)N(Cc3ccc(OC)c(OC)c3)C2=O)c2cc(Cl)ccc21 (configuration not stated)
  5	-7
78. CC1=C(C(=O)OCC(C)C)C(c2cccc([N+](=O)[O-])c2)NC(=O)N1C (configuration not stated)
  -6	-11

Later entries
No.	molecule	NPYLR7 ag	NPYLR7 ag max-min
81	CSC(C)CCN1CCC(OCc2cccnc2)CC1 (configuration not stated)	-2	-3
82	CCNC(=O)N(Cc1cccc(OS(C)(=O)=O)c1)C(C)C	-5	-4
83	O=C(CCC1CCCCC1)NC1CCCCC1	3	7
84	Cc1ccc(C)c(Cn2c(CCNC(=O)C(C)C)nc3ccccc32)c1	7	10
85	COc1c[nH]c(CN2CCCC(CCc3cccc(F)c3)C2)cc1=O (configuration not stated)	7	5
86	Cc1sc(-n2cccc2)c(C(=O)OCC2CCCCO2)c1C (configuration not stated)	4	5
87	Cc1ccc(C)c(S(=O)(=O)N2CCN(c3nc4nccc(-c5ccc(C6CCCCC6)cc5)n4n3)CC2)c1	1	-1
88	Cc1cccc(Oc2ncccc2NC(=O)N(C)CC2CC2)c1C	-22	-23
89	CCOC(=O)C1(NC(=O)CC2CCc3ccccc32)CCC1 (configuration not stated)	1	-3
90	COc1ccc(-c2cnc3ncnn3c2N2CCN(S(=O)(=O)c3cc(C)ccc3C)CC2)cc1	24	25
91	COc1ccc(CCOC(=O)[C@@H]2CCCN2C(=O)C2CCC(CNC(=O)OC(C)(C)C)CC2)cc1OC (some centres not stated)	-6	-11
92	O=C1CN(Cc2cccc3cccnc23)CC(OCc2cccnc2)CN1CC1CCOCC1 (configuration not stated)	-6	-7
93	Cc1cccc(-n2ncc3c(=O)n4c(nc32)SCC4CC(=O)NCc2cccnc2)c1 (configuration not stated)	1	-1
94	COc1cc(Nc2ccc(NC(=O)Nc3cccc(C(F)(F)F)c3)cc2)nc(C)n1	14	7
95	CCOc1ccc(N(CC(=O)Nc2cccnc2)S(=O)(=O)c2ccc(SC)cc2)cc1	11	8
96	CN(C)c1ccc(C=NNC(=O)CSc2nnc(-c3ccccc3)n2-c2ccccc2)cc1	-3	-6
97	CS(=O)(=O)c1ccc(C(=O)N2CCC3(CC2)C(=O)Nc2ccccc23)cc1	6	4
98	COc1cccc(S(=O)(=O)NC(=O)C2CC(c3ccccc3)=NO2)c1 (configuration not stated)	1	2
99	Cc1ccc(-c2cc(CC(=O)N3CCC(C(N)=O)CC3)no2)cc1	7	8
100	CC(C)=CC(=O)Nc1cnn(Cc2cn3ccccc3n2)c1	18	11
101	CC(=O)Nc1ccc(NC(=O)CSc2nc(=O)n(CCCO)c3c2CCCC3)cc1	-12	-19
102	O=C(CC1SC(=Nc2ccccc2)N(c2ccccc2)C1=O)Nc1cccc(Cl)c1 (configuration not stated)	-7	2
103	O=c1[nH]c2cc3ccccc3cc2o1	1	-2
104	COCc1cc(C)nc(OCC(=O)N/N=C\c2cc([N+](=O)[O-])cc([N+](=O)[O-])c2O)c1C#N	5	8
105	Cc1cc(C)n(CCCN(C)c2nc(-c3cccnc3)nc3c2cnn3C)n1	0	2
106	COc1cccc(CC2(CO)CCCN(C(=O)Nc3cccc(C(F)(F)F)c3)C2)c1 (configuration not stated)	5&-9	0&-15
107	COC(=O)c1ccc(S(=O)(=O)NCC(C)N(C)C)s1 (configuration not stated)	-1	-6
108	CCc1ccc(C(=O)N2CCC3(CC2)OCC(C(=O)NCC2CCCO2)N3C(=O)c2ccccc2)cc1 (configuration not stated)	-1	6
109	Clc1ccc(Cc2nc(CSc3ccccn3)cs2)cc1Cl	4	2

Some of the compounds tested. The share of hits here may be higher or lower than overall.
